Vaccinia stage: blocks a specific stage of Vaccinia orthopoxvirus infection; Vaccinia-infected cells, mCherry/Venus stage reporter fluorescence; active compounds read low; some inactives read as strong as hits; activity change (mCherry), % (test concentration not listed); 89,000 tested, 0.01% active; AID 1053133;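 active means mCherry past -33% and 40 or more points under the early reporter, replicates agreeing; inconclusive means past -33% without that gap or agreement; tested in A549 cells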;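 further: scaled between vehicle wells and reference inhibitor wells; 23 nL library stock went into each well; one replicate is shown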
Vaccinia stage Venus: further read-out of Vaccinia stage, marked with its call; activity change (Venus), %; measured here: Venus reporter, other viral stage;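 negative = less Venus signal; first of two replicates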
An asterisk follows results filed as active; ? = inconclusive; / = not tested or not shown; & = joins results of further samples. An excerpt. The share of hits here may be higher or lower than overall.

SMILES	Vaccinia stage	Vaccinia stage Venus
C[C@H](CO)N1C[C@H](C)[C@H](CN(C)C(=O)C2CCC2)Oc2cc(C3=CCCC3)ccc2S1(=O)=O	-9	-10
CO[C@H](CN(C)Cc1nccs1)[C@H](C)CN([C@H](C)CO)S(=O)(=O)c1ccc(F)cc1	17	13
CO[C@@H]1CN(C)C(=O)c2cc(NC(=O)C3CCCC3)ccc2OC[C@H](C)NC[C@H]1C	-8	-2
C[C@@H]1CN([C@H](C)CO)C(=O)c2cc(NC(=O)CCN3CCOCC3)ccc2O[C@H]1CN(C)S(=O)(=O)c1cn(C)cn1	13	11
O=C(Nc1ccccc1F)N1C[C@H]2[C@@H](c3ccccc31)[C@@H](CO)N2C(=O)C1CC1	1	0
C[C@@H]1CN([C@@H](C)CO)C(=O)Cc2cc(NC(=O)C3CC3)ccc2O[C@H]1CN(C)Cc1ccc(Oc2ccccc2)cc1	?	/
C[C@H](CO)N1C[C@H](C)[C@@H](CN(C)Cc2ccc(C(=O)O)cc2)Oc2ccc(NS(=O)(=O)c3ccccc3)cc2C1=O	19	8
C[C@H]1CN([C@@H](C)CO)C(=O)c2cc(NC(=O)Nc3ccc4c(c3)OCO4)ccc2O[C@@H]1CN(C)Cc1ccc(C(=O)O)cc1	14	8
C[C@H](CO)N1C[C@H](C)[C@@H](CN(C)Cc2ccc(Oc3ccccc3)cc2)Oc2ccc(NC(=O)C3CCCCC3)cc2CC1=O	?	/
C[C@H]1CN([C@@H](C)CO)C(=O)c2cc(-c3ccccc3)cnc2O[C@@H]1CN(C)C(=O)Nc1ccccc1F	33	13
COc1ccc2c3c(n(C)c2c1)[C@@H](CO)N(C(=O)c1cnccn1)CC31CN(C)C1	6	-9
CC(C)C#Cc1ccc([C@@H]2[C@@H](CO)N3C(=O)CN(C(=O)NC4CCCCC4)C[C@@H]23)cc1	-27	-17
O=C(Cc1ccccn1)N1CCCCN2[C@@H](CO)[C@@H](c3ccc(Br)cc3)[C@@H]2C1	5	7
C[C@@H]1CN([C@H](C)CO)C(=O)Cc2cc(NS(C)(=O)=O)ccc2O[C@H]1CN(C)Cc1ccc(-c2ccccc2)cc1	-29	-23
Cc1noc(C)c1NC(=O)N[C@H]1CC[C@@H](CC(=O)Nc2ccccc2)O[C@H]1CO	11	6
C[C@@H]1CN([C@H](C)CO)C(=O)c2cccc(NC(=O)c3cnccn3)c2O[C@@H]1CN(C)C(=O)Nc1ccccc1	-6	-2
COCC#Cc1cnc2c(c1)C(=O)N([C@H](C)CO)C[C@@H](C)[C@@H](CN(C)C(=O)Cc1cccnc1)O2	16	11
C[C@H]1CN([C@@H](C)CO)C(=O)c2cc(-c3ccc(F)cc3)cnc2O[C@H]1CN(C)CC1CCCCC1	-18	-10
COc1ccc(C#Cc2ccc([C@@H]3[C@@H](CO)N4CCCCN(Cc5ccccc5F)C[C@@H]34)cc2)cc1	?	/
COc1ccc2c3c(n(C)c2c1)[C@@H](CO)N(C(=O)Nc1ccccc1F)CC31CCN(C(=O)c2ccccc2F)CC1	-5	3
COc1ccccc1-c1cnc2c(c1)C(=O)N([C@@H](C)CO)C[C@@H](C)[C@H](CN(C)Cc1ccc(F)cc1)O2	?	/
CO[C@H]1CN(C)C(=O)c2cc(NC(=O)Cc3ccccc3)ccc2OC[C@H](C)N(C(C)=O)C[C@H]1C	7	5
CCCC#Cc1cnc2c(c1)C(=O)N([C@@H](C)CO)C[C@@H](C)[C@@H](CN(C)C(=O)c1cccnc1)O2	12	4
CC(=O)Nc1ccc2c(c1)C(=O)N(C)[C@H]1CC[C@@H](CC(=O)NCc3ccccc3)O[C@@H]1CO2	3	3
COc1ccccc1S(=O)(=O)N(C)C[C@H]1OCc2ccccc2-c2c(n(C)c3ccccc23)C(=O)N([C@@H](C)CO)C[C@H]1C	?	/
C[C@H]1CN([C@@H](C)CO)S(=O)(=O)c2ccc(C#Cc3cccnc3)cc2O[C@H]1CN(C)C(=O)Nc1ccc2c(c1)OCO2	-21	-19
COc1ccc2c3c(n(C)c2c1)[C@H](CO)N(S(=O)(=O)c1ccc(C)cc1)CC31CN(C(=O)c2ccccn2)C1	5	2
COCC(=O)N(C)C[C@H]1Oc2ncc(/C=C/c3ccccc3)cc2C(=O)N([C@@H](C)CO)C[C@@H]1C	5	2
Cc1ccc(S(=O)(=O)Nc2ccc3c(c2)C(=O)N([C@@H](C)CO)C[C@@H](C)[C@H](CN(C)C(=O)C2CCCCC2)OCCCC[C@H](C)O3)cc1	?	/
CN1CCN(C(=O)C[C@@H]2CC[C@@H]3[C@H](COC[C@@H](O)CN3C(=O)c3ccccc3F)O2)CC1	3	8
C[C@@H]1CN([C@H](C)CO)C(=O)Cc2cc(NC(=O)Cc3ccccc3)ccc2O[C@H]1CN(C)C(=O)Nc1ccc2c(c1)OCO2	12	-1
CC(C)NC(=O)N(C)C[C@@H]1Oc2ncc(C#CCc3ccccc3)cc2C(=O)N([C@H](C)CO)C[C@@H]1C	10	9
COc1ccc(S(=O)(=O)N(C)C[C@H]2OCCCC[C@@H](C)Oc3ccc(NS(=O)(=O)c4cn(C)cn4)cc3C(=O)N([C@H](C)CO)C[C@H]2C)cc1	21	4
COc1ccc(CN(C)C[C@H]2OCCCC[C@@H](C)Oc3ccc(NC(=O)Nc4cccc5ccccc45)cc3C(=O)N([C@@H](C)CO)C[C@@H]2C)cc1	?	/
CN1C(=O)c2cc(NS(=O)(=O)c3ccc(F)cc3)ccc2OC[C@H]2O[C@H](CC(=O)NCC(F)(F)F)CC[C@@H]21	10	9
OC[C@H]1[C@@H](c2ccccc2)C2(CN(CC3CC3)C2)N1Cc1nccs1	-4	8
Cc1cccc(S(=O)(=O)N2CCCCN3[C@H](CO)[C@@H](c4ccc(-c5cccnc5)cc4)[C@@H]3C2)c1	-21	-22
C[C@H](CO)N1C[C@H](C)[C@H](CN(C)C(=O)C2CCCCC2)Oc2ncc(C#Cc3cccc(F)c3)cc2C1=O	?	/
C[C@@H]1CN([C@H](C)CO)C(=O)Cc2cc(NC(=O)C3CCCCC3)ccc2O[C@H]1CN(C)Cc1ccc(C(=O)O)cc1	-2	-3
CO[C@H]1CN(C)C(=O)c2ccc(NC(=O)NC(C)C)cc2OC[C@H](C)N(Cc2ccccn2)C[C@H]1C	1	10
C[C@@H]1CN([C@H](C)CO)C(=O)c2cc(NC(=O)Nc3ccccc3)ccc2O[C@@H]1CN(C)S(=O)(=O)c1ccc(F)cc1	-24	-10
C/C=C/c1ccc([C@H]2[C@@H](CO)N(CCC(F)(F)F)C23CN(C(=O)COC)C3)cc1	6	4
C[C@H](CO)N1C[C@H](C)[C@@H](CN(C)S(C)(=O)=O)Oc2cc(Br)ccc2S1(=O)=O	4&4	0&2
CCC(=O)N1[C@@H](CO)[C@@H](c2ccc(-c3cccnc3)cc2)[C@@H]1CN(CC)C(C)=O	12	14
CN1CCN(C(=O)C[C@@H]2CC[C@H]3[C@@H](COC[C@@H](O)CN3Cc3cccc(F)c3)O2)CC1	2	13
C[C@@H]1CN([C@H](C)CO)S(=O)(=O)c2ccc(-c3ccc(C(=O)N(C)C)cc3)cc2O[C@@H]1CN(C)C(=O)C1CCCCC1	-13	-7
CC(=O)N(C)C[C@@H]1Oc2ncc(-c3ccc(F)cc3)cc2C(=O)N([C@@H](C)CO)C[C@H]1C	6	19
Cc1ccc(-c2ccc3c(c2)O[C@H](CN(C)C(=O)Nc2ccc(C(F)(F)F)cc2)[C@@H](C)CN([C@@H](C)CO)S3(=O)=O)cc1	?	/
CC(C)NC(=O)N[C@H]1CC[C@H](CC(=O)NCCCN(C)C)O[C@H]1CO	11	6
C[C@H]1CN([C@@H](C)CO)C(=O)c2cccc(NC(=O)c3nc4ccccc4s3)c2O[C@@H]1CN(C)C(=O)Nc1ccccc1	10	11
CC(C)(O)C#Cc1ccc([C@H]2[C@@H](CO)N3CCCCN(C(=O)c4ccncc4)C[C@H]23)cc1	34	3
CCCC#Cc1ccc2c(c1)[C@H]1[C@H](CCN1S(=O)(=O)c1ccc(C)cc1)[C@H](CO)N2C	17	12
CO[C@@H]1CN(C)C(=O)c2cc(NC(=O)C3CC3)ccc2OC[C@@H](C)N(C(=O)c2cnccn2)C[C@H]1C	7	4
COc1ccc(NC(=O)Nc2ccc3c(c2)C(=O)N([C@H](C)CO)C[C@H](C)[C@H](CN(C)C(=O)NC2CCCCC2)OCCCC[C@@H](C)O3)cc1	6	-2
CC=Cc1ccc2n(c1=O)C[C@H]1[C@H](CO)[C@@H](C(=O)NCCC)N(CC3CCOCC3)[C@@H]21 (mixture of isomers)	7	7
CCCC#Cc1cnc2c(c1)C(=O)N([C@H](C)CO)C[C@@H](C)[C@H](CN(C)C(=O)Nc1c(C)noc1C)O2	14	6
Cc1noc(C)c1NC(=O)Nc1ccc2c(c1)C(=O)N([C@H](C)CO)C[C@@H](C)[C@H](CN(C)Cc1ccc(Oc3ccccc3)cc1)O2	7	7
Cc1ccccc1-c1ccc([C@H]2[C@@H](CO)N3C(=O)CN(C(=O)Nc4ccc(F)cc4)C[C@H]23)cc1	?	/
Cc1noc(C)c1NC(=O)N(C)C[C@H]1Oc2cc(C#CCN(C)C)ccc2S(=O)(=O)N([C@@H](C)CO)C[C@@H]1C	31	24
CS(=O)(=O)N1[C@H](CO)[C@@H](c2ccccc2)C12CN(C(=O)C1CC1)C2	2	1
Next section
SMILES	Vaccinia stage	Vaccinia stage Venus
C[C@H]1CN([C@@H](C)CO)C(=O)c2cc(NS(=O)(=O)c3cccs3)ccc2O[C@H]1CN(C)Cc1ccc2c(c1)OCO2	21	18
O=C(C[C@H]1C[C@H]2c3cc(NC(=O)NC4CCCC4)ccc3O[C@H]2[C@@H](CO)O1)NCCN1CCCCC1	14	7
C[C@@H]1CN([C@H](C)CO)S(=O)(=O)c2ccc(C#CC(C)(C)O)cc2O[C@@H]1CN(C)C	4	-5
COc1cccc(C#Cc2cnc3c(c2)C(=O)N([C@@H](C)CO)C[C@H](C)[C@@H](CN(C)C)O3)c1	-15	-10
COCC#Cc1ccc([C@H]2[C@@H](CO)N3C(=O)CN(C(=O)C4CCCCC4)C[C@H]23)cc1	7	14
COc1cccc(-c2ccc3c(c2)[C@H]2[C@H](CCN2C(=O)c2cccc(F)c2)[C@H](CO)N3)c1	?	/
O=C(C1CCCCC1)N1CC(=O)N2[C@H](CO)[C@H](c3ccc(-c4cccnc4)cc3)[C@H]2C1	6	2
CN1CCN(C(=O)C[C@H]2CC[C@H]3[C@@H](COC[C@@H](O)CN3Cc3cccc(-c4ccncc4)c3)O2)CC1	-5	-1
CCCC(=O)N1CC2(CN(C(=O)C3CC3)C2)c2c(n(C)c3cc(OC)ccc23)[C@@H]1CO	-7	-9
Cn1cnc(S(=O)(=O)N[C@H]2C=C[C@@H](CC(=O)NCC3CC3)O[C@H]2CO)c1	0	-5
CCN(C[C@H]1[C@H](c2ccc(-c3ccccc3)cc2)[C@H](CO)N1CC1CC1)C(C)=O	-18	-6
C[C@@H]1CN([C@H](C)CO)C(=O)c2cc(NC(=O)Nc3ccc(C(F)(F)F)cc3)ccc2O[C@@H](C)CCCCO[C@@H]1CN(C)Cc1ccc(Cl)c(Cl)c1	-9	-2
C[C@H]1CCCCO[C@H](CN(C)Cc2ccc(C(F)(F)F)cc2)[C@@H](C)CN([C@@H](C)CO)C(=O)c2cc(NS(=O)(=O)c3ccccc3)ccc2O1	?	/
C[C@@H]1CN([C@H](C)CO)C(=O)c2cc(Br)cnc2O[C@H]1CN(C)Cc1ccc2c(c1)OCO2	4	-2
CO[C@@H]1CN(C)C(=O)c2cc(NC(=O)c3cnccn3)ccc2OC[C@H](C)N(CC2CC2)C[C@@H]1C	12	5

Seven entries from above, in CSV form.
compound,Vaccinia stage,Vaccinia stage Venus
Cc1ccc(-c2ccc3c(c2)O[C@H](CN(C)C(=O)Nc2ccc(C(F)(F)F)cc2)[C@@H](C)CN([C@@H](C)CO)S3(=O)=O)cc1,?,/
CC(C)NC(=O)N[C@H]1CC[C@H](CC(=O)NCCCN(C)C)O[C@H]1CO,11,6
C[C@H]1CN([C@@H](C)CO)C(=O)c2cccc(NC(=O)c3nc4ccccc4s3)c2O[C@@H]1CN(C)C(=O)Nc1ccccc1,10,11
CC(C)(O)C#Cc1ccc([C@H]2[C@@H](CO)N3CCCCN(C(=O)c4ccncc4)C[C@H]23)cc1,34,3
CCCC#Cc1ccc2c(c1)[C@H]1[C@H](CCN1S(=O)(=O)c1ccc(C)cc1)[C@H](CO)N2C,17,12
CO[C@@H]1CN(C)C(=O)c2cc(NC(=O)C3CC3)ccc2OC[C@@H](C)N(C(=O)c2cnccn2)C[C@H]1C,7,4
COc1ccc(NC(=O)Nc2ccc3c(c2)C(=O)N([C@H](C)CO)C[C@H](C)[C@H](CN(C)C(=O)NC2CCCCC2)OCCCC[C@@H](C)O3)cc1,6,-2

For reference, some entries already given:
SMILES	Vaccinia stage	Vaccinia stage Venus
C[C@H]1CCCCO[C@H](CN(C)Cc2ccc(C(F)(F)F)cc2)[C@@H](C)CN([C@@H](C)CO)C(=O)c2cc(NS(=O)(=O)c3ccccc3)ccc2O1	?	/
C[C@@H]1CN([C@H](C)CO)C(=O)c2cc(Br)cnc2O[C@H]1CN(C)Cc1ccc2c(c1)OCO2	4	-2
CO[C@@H]1CN(C)C(=O)c2cc(NC(=O)c3cnccn3)ccc2OC[C@H](C)N(CC2CC2)C[C@@H]1C	12	5

Further records.
SMILES	Vaccinia stage	Vaccinia stage Venus
CCCC#Cc1ccc2c(c1)O[C@@H](CN(C)C(=O)c1ccncc1)[C@H](C)CN([C@H](C)CO)S2(=O)=O	5	1
COC(=O)C[C@@H]1CC[C@@H]2[C@H](COC[C@@H](O)CN2S(=O)(=O)c2ccc(F)cc2)O1	19	8
C[C@@H]1CCCCO[C@H](CN(C)Cc2ccc(C(F)(F)F)cc2)[C@@H](C)CN([C@@H](C)CO)C(=O)c2cc(NS(=O)(=O)c3ccccc3)ccc2O1	?	/
C[C@@H]1CN([C@@H](C)CO)C(=O)c2cc(C#Cc3ccccc3F)cnc2O[C@@H]1CN(C)C(=O)Cc1ccncc1	2	-14
COc1ccc(-c2ccc3c(c2)[C@H]2[C@H](CCN2C(=O)Nc2ccccc2OC)[C@H](CO)N3C)cc1	-29	-26

Compound activity deposited in PubChem by Broad Institute.
